T cruzi repl – blocks replication of Trypanosoma cruzi; inhibition, % (no concentration beside the values); 1.4% of 300,000 active; T. cruzi beta-gal in NIH3T3, luminescence, 90 h;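 active = mean inhibition across valid replicates above about 55%, limit read from the data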;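 also: signal also drops with host cell toxicity which is not excluded here; 0% = plate median of DMSO wells and 100% = zero luminescence signal; higher percent means less beta-gal luminescence so fewer parasites; stock transfer was 50 nL into about 50 µL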
Calb FLC – affects C. albicans growth with fluconazole. C. albicans CaCi-2 (fluconazole-resistant clinical isolate) + fluconazole, Alamar Blue growth, 48 h. growth inhibition, % (no concentration beside the values). 0.57% of 300,000 active;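 active = most replicates above 75%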;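 also: all wells also contain fluconazole at 8 µg/ml as a sub-toxic cotreatment; 0% = median of DMSO wells and 100% = median of geldanamycin control wells; wells of about 8 µL received 7.5 nL stock; the first replicate is given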
Beta apoptosis – blocks beta cell apoptosis | INS-1E cytokine-induced death, ATP luminescence, 48 h; percent of positive-control rescue, neutral wells zero | protection from apoptosis, % (test concentration not listed) | 0.8% of 300,000 active;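 active = all replicates at 75% or more, or half of them and the mean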;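 also: 0% = cytokine-treated negative control wells and 100% = positive control rescue; higher means more ATP so stronger rescue from cytokine killing; wells of about 40 µL received 100 nL stock; the first replicate is given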
LANA-H2A inh – blocks KSHV LANA binding to histone H2A/H2B; Q9QR71; cell-free LANA-H2A/H2B peptide, fluorescence polarization; inhibition, % (test concentration not listed); 0.6% of 320,000 active; AID 2629; in the data active = inhibition mostly above about 10%, no sharp cut-off; inactive = mostly below about 6.7%;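 also: stock transfer was 7.5 nL into about 10 µL; 0% = median of vehicle wells and 100% = median of positive control wells; one replicate is shown; the record names a cut of 25% in any replicate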
Target sequence (Q9QR71 whole entry, looked up): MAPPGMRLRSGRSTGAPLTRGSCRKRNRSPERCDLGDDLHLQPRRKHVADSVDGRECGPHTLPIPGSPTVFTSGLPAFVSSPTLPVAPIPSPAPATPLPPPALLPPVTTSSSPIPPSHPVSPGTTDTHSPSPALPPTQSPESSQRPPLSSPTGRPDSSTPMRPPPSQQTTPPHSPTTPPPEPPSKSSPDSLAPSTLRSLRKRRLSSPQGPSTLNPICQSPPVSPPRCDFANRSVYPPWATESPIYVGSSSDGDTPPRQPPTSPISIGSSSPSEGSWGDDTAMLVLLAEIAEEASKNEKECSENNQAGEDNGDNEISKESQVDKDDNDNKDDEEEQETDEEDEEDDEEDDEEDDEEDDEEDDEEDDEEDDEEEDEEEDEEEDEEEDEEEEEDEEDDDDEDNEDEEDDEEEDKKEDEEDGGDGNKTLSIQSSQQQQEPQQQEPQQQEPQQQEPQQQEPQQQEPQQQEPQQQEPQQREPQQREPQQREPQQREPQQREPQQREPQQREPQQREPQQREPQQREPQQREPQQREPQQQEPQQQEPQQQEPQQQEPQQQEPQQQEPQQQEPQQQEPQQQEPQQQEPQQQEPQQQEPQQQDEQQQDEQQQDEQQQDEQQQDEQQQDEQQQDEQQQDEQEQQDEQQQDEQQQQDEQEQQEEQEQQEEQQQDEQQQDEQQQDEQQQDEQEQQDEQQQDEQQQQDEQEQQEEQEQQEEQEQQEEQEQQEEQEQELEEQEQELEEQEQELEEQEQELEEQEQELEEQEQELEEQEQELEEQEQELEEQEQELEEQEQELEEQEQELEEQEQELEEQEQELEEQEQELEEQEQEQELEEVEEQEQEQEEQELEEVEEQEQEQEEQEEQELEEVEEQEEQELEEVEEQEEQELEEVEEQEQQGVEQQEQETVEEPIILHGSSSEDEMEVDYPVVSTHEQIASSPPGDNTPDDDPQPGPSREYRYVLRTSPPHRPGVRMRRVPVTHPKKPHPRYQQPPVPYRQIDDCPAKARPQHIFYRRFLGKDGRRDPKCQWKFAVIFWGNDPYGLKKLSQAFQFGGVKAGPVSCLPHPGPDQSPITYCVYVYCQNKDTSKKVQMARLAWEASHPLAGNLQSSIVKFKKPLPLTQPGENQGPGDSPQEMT
Bfl-1 A1 inh – inhibitors of the anti-apoptotic protein A1, read as caspase activation | 0.066% of 330,000 active | MEF A1-2A-BIM cells, Caspase-Glo 3/7 luminescence, 3 h; percent of clofoctol response, vehicle zero | caspase activation, % (no concentration beside the values) | AID 2462;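 active = over half of replicate activation scores above 10%, or exactly half above 10 with the replicate mean above 10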;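 also: wells of about 30 µL received 50 nL stock; many hits fall short of the cut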
B2AR ag – activates human beta-2 adrenergic receptor causing internalization. 0.43% of 340,000 active. Am2.2-beta2AR cells, FAP receptor internalization, flow cytometry; reference of the scale not given here. response, % (test concentration not listed). AID 504454;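 active = response above a set limit, near 3 SD of response in nonfluorescent compounds, cut at about 42% in these data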;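 also: stock transfer was 100 nL into about 11 µL; a reference agonist was the positive control; negative values mostly stem from fluorescent compounds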
ALR H2O2 inh – blocks human ALR sulfhydryl oxidase activity; 3.8% of 290,000 active; purified ALR, DTT oxidation, H2O2 HRP-luminol luminescence; inhibition, % (concentration not given with the values); AID 485317;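 active = mean and each replicate at 75% or more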;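 also: stock transfer was 7.5 nL into about 7.5 µL; 0% = neutral wells and 100% = wells with inactivated enzyme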
Ecoli rRNA inh – inhibitors of bacterial rRNA selective over humanized ribosomes; E. coli WT GFP vs humanized-ribosome RFP mutants, fluorescence, 24 h; stronger effect = lower value; DMSO median 0, no signal -100; GFP signal change (wild-type ribosome), % (test concentration not listed); 1.6% of 350,000 active;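 active = significant combined selectivity score with lowered wild-type GFP, culture density cut under 30%, mutant RFP and density less affected; inactive = any of these conditions unmet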; also: one replicate is shown; some compounds called inactive have numbers as strong as hits
Ecoli rRNA inh OD600 – also measured in Ecoli rRNA inh; calls as there; OD600 change, %; measured here: OD600 growth;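 optical density of the mix in the first replicate; 0 = DMSO median and -100 = no signal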
Ecoli rRNA inh RFP – recorded beside Ecoli rRNA inh, whose call it bears; RFP signal change, %; measured here: RFP humanized mutant strains;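 first replicate; 0 = DMSO median and -100 = no signal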
* = called active by the depositor; · = no result given; & = joins results of further samples. Some of the compounds tested; the hit share may differ from the screen's.

1: O=c1cc(-c2cccc(F)c2)[nH]c2ccccc12
2: CCCOc1ccc(-c2nnn(CC(=O)c3c[nH]c4ccccc34)n2)cc1
3: COc1ccc2oc(C)c(C(=O)c3ccc([N+](=O)[O-])cc3)c2c1
4: CCOc1ccc(S(=O)(=O)N2CCN(Cc3ccccc3)CC2)c2cccnc12
5: O=C(COc1ccc2ccccc2c1)NC1CC1
6: CCOc1ccc2cc(/C=C/C(=O)c3ccco3)c(Cl)nc2c1
7: CNCc1sccc1C
8: Cc1cc(C)n(CC2CC(=O)N(c3ccc(F)c(Cl)c3)C2=O)n1 (stereo unspecified)
9: C[C@H]1COC(=O)[C@H](Cc2ccc(F)cc2)C/C=C\C[C@@H](CC(=O)NCCO)C(=O)N1
10: COc1cc(NC2c3ccccc3C(=O)N2c2ccc(C)cn2)cc(OC)c1OC (stereo unspecified)
compound no.	1	2	3	4	5	6	7	8	9	10
T cruzi repl	-9	14	25	3	-5	-3	3	·	·	22
Calb FLC	-4	4	-6	7	3	42	-11	·	·	-4
Beta apoptosis	17	10	-12	-2	2	-8	-1	-3	9	3
LANA-H2A inh	1.7	2.0	1.6	1.0	-6.1	-13	3.1	0.1	2.4	-2.4
Bfl-1 A1 inh	1.5	0.3	1.4	1.0	-3.2	0.2	-0.3	-0.1	1.4	-0.2
B2AR ag	21	-2	-6	-41	3	-6	-1	1	-3	-2
ALR H2O2 inh	-3	1	16	-21	-18	35	-3	-1	-6	9
Ecoli rRNA inh	14	·	-19	·	·	·	10	·	5	3
Ecoli rRNA inh OD600	15	·	-34	·	·	·	-5	·	1	-4
Ecoli rRNA inh RFP	-3.8	·	-16	·	·	·	-8.5	·	-3.6	1.0

11: Cn1c(CCC(=O)Nc2ccc(N3CCOCC3)cc2)nc(=O)c2ccccc21
12: O=C(COC(=O)CNC(=O)c1cccs1)Nc1ccccc1C(F)(F)F
13: O=C(C1=C(O)C(=O)N(CCN2CCOCC2)C1c1cccc(Br)c1)c1cc2ccccc2o1 (stereo unspecified)
14: Cc1cccc(C)c1Nc1nnc(SCC(=O)Nc2ncc(C(F)(F)F)cc2Cl)s1
15: COc1ccc(CC(=O)Nc2cc(C)on2)cc1
16: CCCSc1nc(C)cc(C)c1C(N)=O
17: COc1ccc(C(=O)CCN2CCCCCC2)cc1
18: CCOC(=O)N1CCN(CC(=O)N2c3ccccc3CCc3ccccc32)CC1
19: C[C@@H]1CN([C@H](C)CO)C(=O)c2cc(NC(=O)C3CCCCC3)ccc2O[C@@H]1CN(C)Cc1ccc(C(F)(F)F)cc1
20: CN1CCc2c(sc3nc(NCCO)n(-c4cccc(Cl)c4)c(=O)c23)C1
compound no.	11	12	13	14	15	16	17	18	19	20
T cruzi repl	3	13	-15	6	-2	-5	26	-2	·	28
Calb FLC	2	8	35	0	-8	7	-5	8	·	8
Beta apoptosis	·	-11	-7	2	-3	-1	-16	-1	8	-3
LANA-H2A inh	1.8	-2.1	-1.3	7.3	2.1	0.3	12*	-3.4	-3.6	-0.9
Bfl-1 A1 inh	0.4	0.1	-0.5	0.1	0.5	0.1	0.4	0.4	-0.2	0.2
B2AR ag	-11	-6	27	-15	-2	4	8	5	0	10
ALR H2O2 inh	36	·	35	3	-5	-3	54	0	1	-5
Ecoli rRNA inh	·	7	-10	·	·	·	20	-8	-8&-8	4
Ecoli rRNA inh OD600	·	6	-12	·	·	·	10	-9	-19&-26	7
Ecoli rRNA inh RFP	·	1.7	3.0	·	·	·	-3.9	-0.8	0.2&4.3	-2.4

21: COc1ccc(C(=O)N/N=C\c2ccoc2)cc1
22: Cc1ccc(NC(=O)CCNS(=O)(=O)c2cccs2)cc1F
23: COc1ccc(C(=O)CSc2nnc3ccccn23)cc1OC
24: CC(C)NCC(O)COc1c(F)cc(Br)cc1F (stereo unspecified)
25: Cc1c(Cl)cccc1NC(=O)CNC(=O)c1ccc2c(c1)OCCO2
26: c1ccc2c(c1)CC1(CCCCC1)n1nnnc1-2
27: CN(C)C(CNC(=O)C1CCN(S(=O)(=O)c2cccc(C(F)(F)F)c2)CC1)c1ccccc1 (stereo unspecified)
28: Cc1cccc(Cn2nc(C(C)(C)C)cc2C(=O)N2CCOCC2)c1
29: CN(C)S(=O)(=O)c1ccc(NC(=O)CCNC(=O)c2ccco2)cc1
30: CCCCOc1ccc(N(CC(=O)NC(C)C)C(=O)CCC(=O)Nc2ccccn2)cc1
compound no.	21	22	23	24	25	26	27	28	29	30
T cruzi repl	-6	-14	-4	5	·	0	19	1	-9	-7
Calb FLC	-2	9	-5	0	·	8	-5	2	-12	-1
Beta apoptosis	-4	3	-2	-8	-6	-6	0	-3	-11	·
LANA-H2A inh	2.1	5.7	-3.1	-0.5	-2.8	-3.1	1.1	-3.6	1.4	-2.2
Bfl-1 A1 inh	-1.2	-0.3	-0.4	1.3	0.1	1.7	0.2	0.9	0.8	-0.3
B2AR ag	-4	7	-4	-11	7	-5	8	-5	-1	-7
ALR H2O2 inh	4	0	·	48	-9	-5	·	-1	15	1
Ecoli rRNA inh	12	-10	7	·	-3	-9	3	4	-4	20
Ecoli rRNA inh OD600	20	5	11	·	-7	-7	0	8	-1	22
Ecoli rRNA inh RFP	-0.2	2.7	1.1	·	-1.6	-4.5	1.8	-0.2	0.2	0.4

31: O=C(NC12CC3CC(CC(C3)C1)C2)C1=COCCO1
32: O=C(c1cc(F)c(F)cc1Cl)N1CCN(c2ccc([N+](=O)[O-])c3ncccc23)CC1
33: Cc1ccc(S(=O)(=O)N2CCN(C(=O)CC(C)(C)C)CC2)cc1
34: COC(=O)C1=C(c2ccc(OC)cc2)OC(=O)C1(C)C
35: CCOC(=O)c1c(NS(=O)(=O)c2cccc(OC)c2)sc2c1CCC2
36: CCc1nnc(NC(=O)CCC(=O)N2CCN(c3ccccn3)CC2)s1
37: O=C(NN=C1CCCCC1)c1cc(-c2ccccc2)n[nH]1
38: O=C(Cc1ccc(Cl)cc1)NCC(=O)N1CCN(Cc2ccccc2)CC1
39: Cc1cc(NC(=O)C(C)Sc2nnc(NCc3ccco3)s2)no1 (stereo unspecified)
40: CCOC(=O)N1CCC(NC(=O)c2cc(C)c3c(C)nn(-c4ccccc4)c3n2)CC1
compound no.	31	32	33	34	35	36	37	38	39	40
T cruzi repl	-1	-2	0	1	-14	-17	-2	29	·	3
Calb FLC	-10	-5	-20	-9	30	22	-27	2	·	9
Beta apoptosis	0	9	·	0	-11	-3	-1	22	-3	3
LANA-H2A inh	-2.1	2.2	1.6	-1.0	-0.9	-2.4	-4.2	3.1	4.4	-0.1
Bfl-1 A1 inh	-0.1	-0.2	0.3	-0.5	-1.7	0.0	-0.1	0.8	-0.4	0.1
B2AR ag	5	-7	-9	3	8	-10	2	3	0	2
ALR H2O2 inh	-1	-146	-1	5	30	·	56	3	-1	·
Ecoli rRNA inh	·	-3	18	14	·	·	·	4	1	·
Ecoli rRNA inh OD600	·	-8	18	20	·	·	·	2	7	·
Ecoli rRNA inh RFP	·	0.2	1.8	4.3	·	·	·	1.9	0.5	·

41: Cn1cc(S(=O)(=O)Nc2ccc(F)cc2F)c(=O)n(C)c1=O
42: Cc1nc(C)c(C(=O)NCCC(c2ccccc2)c2ccccc2)o1
43: Cc1cc(Cl)c(S(=O)(=O)Nc2ccc(Cl)cn2)cc1OCC(N)=O
44: COc1ccc(OCCN2CCN(C(=O)c3ccc(OC)cc3)CC2)cc1
45: CCC1Sc2ccc(S(=O)(=O)N3CCN(c4ccccc4)CC3)cc2NC1=O (stereo unspecified)
46: COc1ccccc1-c1c(C(F)(F)F)oc2c(CN(C)C)c(O)ccc2c1=O
47: Cc1nn(C)c(C)c1CN(C)C(=O)CCCC(=O)O
48: O=C1NC(=S)S/C1=C/c1ccc(N2CCOCC2)o1
49: Cc1ccc(Cn2cc(-c3ccccc3)nn2)cc1
50: CC(C)c1ccc(C(=O)Nc2nnc(S(=O)(=O)N3CCCCC3)s2)cc1
compound no.	41	42	43	44	45	46	47	48	49	50
T cruzi repl	-4	-11	11	-5	5	-7	-6	-1	-4	-3
Calb FLC	0	-4	10	-15	-2	2	10	19	19	-6
Beta apoptosis	-6	-2	-3	-5	1	-5	-2	0	3	3
LANA-H2A inh	6.5	-6.5	0.1	14*	0.6	0.3	4.4	3.1	0.9	0.7
Bfl-1 A1 inh	0.3	-0.3	-0.5	0.1	0.5	1.0	-0.2	1.0	-2.2	0.8
B2AR ag	2	2	5	4	-2	1	11	-21	-5	4
ALR H2O2 inh	-5	0	-13	·	0	-18	-1	24	0	5
Ecoli rRNA inh	0	-1	·	3	3	7	·	·	8	0
Ecoli rRNA inh OD600	-9	5	·	1	-14	2	·	·	7	8
Ecoli rRNA inh RFP	1.1	1.6	·	-0.2	5.4	-2.0	·	·	-7.7	-1.0

Whole records, quoted from the list. Screens in order: T cruzi repl | Calb FLC | Beta apoptosis | LANA-H2A inh | Bfl-1 A1 inh | B2AR ag | ALR H2O2 inh | Ecoli rRNA inh | Ecoli rRNA inh OD600 | Ecoli rRNA inh RFP
Results for Cn1cc(S(=O)(=O)Nc2ccc(F)cc2F)c(=O)n(C)c1=O → -4 | 0 | -6 | 6.5 | 0.3 | 2 | -5 | 0 | -9 | 1.1
Results for CCC1Sc2ccc(S(=O)(=O)N3CCN(c4ccccc4)CC3)cc2NC1=O (stereo unspecified) → 5 | -2 | 1 | 0.6 | 0.5 | -2 | 0 | 3 | -14 | 5.4
Results for Cc1ccc(Cn2cc(-c3ccccc3)nn2)cc1 → -4 | 19 | 3 | 0.9 | -2.2 | -5 | 0 | 8 | 7 | -7.7
Results for Cc1nc(C)c(C(=O)NCCC(c2ccccc2)c2ccccc2)o1 → -11 | -4 | -2 | -6.5 | -0.3 | 2 | 0 | -1 | 5 | 1.6
Results for Cc1cc(Cl)c(S(=O)(=O)Nc2ccc(Cl)cn2)cc1OCC(N)=O → 11 | 10 | -3 | 0.1 | -0.5 | 5 | -13 | · | · | ·

Next structures follow:
51: CCc1ccc(N(CC(=O)NCc2ccco2)C(=O)CCC(=O)Nc2nccs2)cc1
52: O=C(CSc1nnc2ccc(-c3cccnc3)nn12)Nc1ccccc1
53: CC1CCC(NS(=O)(=O)c2ccc(Cl)nc2)CC1 (stereo unspecified)
54: CSc1cc(C)nc(NC(C)=O)n1
55: CCN(c1ccccc1)S(=O)(=O)c1ccc2c(c1)OCCO2
56: CCCN1CCN(CCCNC(=O)CCn2nc(-c3ccccc3)ccc2=O)CC1
compound no.	51	52	53	54	55	56
T cruzi repl	14	-5	-1	-19	·	-16
Calb FLC	4	5	-8	4	·	1
Beta apoptosis	-2	·	1	-1	-6	0
LANA-H2A inh	4.1	-3.1	-0.5	-1.8	-5.7	1.5
Bfl-1 A1 inh	0.9	-0.5	-0.6	0.1	-0.6	0.0
B2AR ag	-5	-2	-8	8	8	2
ALR H2O2 inh	2	-15	-1	-12	-5	-3
Ecoli rRNA inh	·	11	0	·	-16	12
Ecoli rRNA inh OD600	·	18	2	·	-16	4
Ecoli rRNA inh RFP	·	-2.6	-1.0	·	2.1	0.6
